Screens: PubChem, PCMD
Calb biofilm kill = clotrimazole potentiators killing C. albicans biofilm, primary screen, 4-compound mixtures; inhibition, % at 7.6 µM; C. albicans biofilm persisters + clotrimazole, fluorescence viability; primary screen in compound mixtures of four per well; 120,000 compounds, 0.02% hits; AID 1242, 2008;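 active means inhibition above 30.3% in the primary screen of four-compound pools, then above 30% when the compound was retested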;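 further: compounds exposed to preformed 24 h biofilms for 48 h; the number belongs to the whole pool; some results filed as inactive read as strong as hits; inactives centre near 12; 0% = biofilm with clotrimazole alone and 100% = kill control; retested singly at about 60 µM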
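Test system: C. albicans CAF4-2 wild-type biofilms; buffer or medium: RPMI/MOPS medium, pH 7.0; schedule: 24 h biofilm formation, then 48 h compound exposure, 37 °C; detection: Alamar Blue fluorescence; measure: percent inhibition of biofilm viability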
Starred values were filed as active, the others as inactive.

SMILES	Calb biofilm kill
CN1OC[C@@H]2COc3ccc4ccccc4c3[C@@H]21	32
O=C(NC(C(Cl)Cl)N1CCOCC1)c1ccccc1 (stereo not given)	18
CN1CCN(c2ccc([N+](=O)[O-])c3no[n+]([O-])c23)CC1	18
Cc1ccc(S(=O)(=O)N(C)C/N=C(\N)N[N+](=O)[O-])cc1	14
CCC(=NCc1ccco1)c1c(O)n(-c2ccc(Cl)cc2)c(=O)[nH]c1=O	18
CCC(=O)OC1(Cc2ccc(CC)cc2)CC(C)N(C)CC1C (stereo not given)	13
CCNc1cc(N2CCNCC2)ccc1[N+](=O)[O-]	9
CN(C)CC1Oc2ccccc2OC1(O)c1ccccc1 (stereo not given)	26
O=C(Nc1ccccc1)N1CCC2(CC1)OCCO2	-7
CCC(=NCc1cc(OC)cc(OC)c1)c1c(O)[nH]c(=O)[nH]c1=O	22
CCn1c(O)c(/C=N/NC(=O)c2ccccc2)c(=O)n(CC)c1=S	14
Cc1cccc(N2C(=O)/C(=C/c3ccc(N4CCN(C)CC4)o3)C(=O)NC2=S)c1C	10
Cc1cccc(OP(=O)(Oc2cccc(C)c2)OC(c2ccccc2)C(F)(F)F)c1 (stereo not given)	17
O=c1[nH]c(=S)n(CCC2=CCCCC2)c(O)c1/C=N/Nc1ccccc1	20
CC1(C(O)(C#CCN2CCCCC2)c2ccccc2)CCCC1 (stereo not given)	-7
O=C1NC(=O)N(CCNc2ncc(C(F)(F)F)cc2Cl)C(=O)C1Cc1ccc(Cl)cc1 (stereo not given)	-1
O=C(c1cccnc1)c1cc2ccccc2[nH]1	18
CC1(C)C2([N+](=O)[O-])CN3CC1([N+](=O)[O-])CN(C2)C3c1cccnc1 (stereo not given)	3
COc1cc(OC)cc(C2(C#N)CCN(C)CC2)c1	9
CC12CCC3C(CC=C4CC(O)CCC43C)C1C/C(=C\N1CCCC1)C2=O (stereo not given)	17
COc1ccc(N2CC2c2ccncc2)cc1 (stereo not given)	15
COC(=O)c1ccc(N=C(c2ccccc2)c2c(O)n(C)c(=O)n(C)c2=O)cc1	27
CN(C(=O)CN1CC=C(c2ccccc2)CC1)c1c(N)n(Cc2ccccc2)c(=O)[nH]c1=O	-1
Cc1cc(Oc2ccc(C(F)(F)F)cc2[N+](=O)[O-])c2c3c(c(=O)oc2c1)CCC3	12

Next section; the last six above are carried over.
SMILES	Calb biofilm kill
COc1cc(OC)cc(C2(C#N)CCN(C)CC2)c1	9
CC12CCC3C(CC=C4CC(O)CCC43C)C1C/C(=C\N1CCCC1)C2=O (stereo not given)	17
COc1ccc(N2CC2c2ccncc2)cc1 (stereo not given)	15
COC(=O)c1ccc(N=C(c2ccccc2)c2c(O)n(C)c(=O)n(C)c2=O)cc1	27
CN(C(=O)CN1CC=C(c2ccccc2)CC1)c1c(N)n(Cc2ccccc2)c(=O)[nH]c1=O	-1
Cc1cc(Oc2ccc(C(F)(F)F)cc2[N+](=O)[O-])c2c3c(c(=O)oc2c1)CCC3	12
O=C1Nc2ccccc2C1Cc1nc2ccccc2c(=O)n1-c1ccccc1 (stereo not given)	-2
COCc1cc(OC(=O)N(C)C)nc(-c2ccc(C)c(Cl)c2)n1	19
CC(=O)Nc1ccccc1C(=O)OCC(=O)c1ccccc1Cl	14
CCOC(=O)C1CCN(/C=C2/C(=O)NC(=S)N(c3ccccc3F)C2=O)CC1	11
O=C(Cn1nc(-c2ccc(Cl)cc2)ccc1=O)N1CCC2(CC1)OCCO2	13
COc1ccc(-c2nc3ccccc3c(=O)o2)cc1	18
C=CCn1c(O)c(N=Nc2c(C)n(C)n(-c3ccccc3)c2=O)c(=O)[nH]c1=S	5
O=C(OCCN1CCOCC1)C1(c2ccccc2)CCCC1	17
Cc1cccc(N2C(=O)NC(=O)/C(=C\c3ccc(N4CCOCC4)cc3)C2=O)c1	18
C=CCc1cc(C=C2C(=O)NC(=O)NC2=O)cc(OC)c1OCc1ccc(C(=O)O)cc1	30
CN1CCC2(CC1)N=C(c1ccc(F)cc1)C(=S)N2	19
O=C(CF)NC(NC(=S)Nc1cccc([N+](=O)[O-])c1)C(Cl)(Cl)Cl (stereo not given)	3
CCn1cc(C(=O)NCc2ccccc2)c2ccccc21	11
CCSC1=NN1c1cc(C)nc(N)n1	18
Cc1cc(S(N)(=O)=O)ccc1N=Cc1c(O)n(-c2ccccc2)c(=O)[nH]c1=O	4
CCCCC(=O)N/N=C/c1c(O)n(CCCC)c(=S)[nH]c1=O	19
CCCCC(=O)N/N=C/c1c(O)n(CCc2ccc(OC)c(OC)c2)c(=O)[nH]c1=O	6
CP(=O)(Nc1ccc(Cl)cc1)c1nc2c(s1)CCCC2 (stereo not given)	19
Cc1ccc(C)c(OCC(=O)N2CCCN(C)CC2)c1	11
CN1CCN2c3ccccc3CC3(C(=O)N(C)C(=O)N(C)C3=O)C2C1 (stereo not given)	17
Cc1cc(C)c(-n2c(O)c(/C=N/NC(=O)c3ccncc3)c(=O)[nH]c2=O)c(C)c1	19
CCCCN1C(=N)C(CC)(CC)C(=O)NC1=O	16
C=CCn1c(O)c(C=NCCN2CCOCC2)c(=O)[nH]c1=S	14
Cn1cccc1CNCCc1ccc(F)cc1	19
O=c1[nH]c(O)c(C=Nc2ccccc2[N+](=O)[O-])c(=O)[nH]1	4
Cc1c(C=O)c2ccccc2n1Cc1ccccc1F	9
COc1ccc(CN2C(=O)NC(=O)/C(=C\c3ccc(OC)c(OC)c3OC)C2=O)cc1	16
CN(C)c1ccc(/C=C/c2cc[n+](C)c3ccccc23)cc1	9
COc1ccccc1OCC#CCN1CCOCC1	16
COc1ccc(OCC(=O)N2CCN(Cc3nc4cc([N+](=O)[O-])ccc4n3C)CC2)cc1	19
COc1ccccc1Sc1ccccc1CC(C)N (stereo not given)	11
COC(=O)[C@]12OC[C@]34C([C@@H](O)[C@@H]1O)[C@]1(C)CC(=O)C(O)=C(C)[C@@H]1C[C@H]3OC(=O)[C@H](O)[C@@H]24 (stereo not given in full)	13
COc1ccc(-c2nc3ccccc3c(=O)n2-c2ccc(OC)cc2)cc1	31
CC(=NCCc1ccccc1)c1c(O)[nH]c(=O)[nH]c1=O	9
O=C1NC(=O)N(c2ccccc2)C(=O)/C1=C/c1ccc([N+](=O)[O-])s1	8
COc1ccc(C(=O)O/N=C(/C(N)=O)P(=O)(OC(C)C)OC(C)C)cc1	20
Cc1cc(C(=O)CS(=O)(=O)c2ccc(F)cc2)cc(C)c1OC(=O)N(C)C	14
COc1cccc(C(=O)C2CCCN(Cc3cnn(C(C)C)c3)C2)c1 (stereo not given)	-3
CCN1C(=O)C(=Cc2ccc(N3CCOCC3)o2)C(=O)N(CC)C1=S	4
CCOC(=O)c1cc(CC)sc1/N=C/c1c(O)[nH]c(=S)[nH]c1=O	5
COc1ccc(N=Cc2c(O)n(-c3ccc(C)cc3)c(=O)[nH]c2=O)cc1	-5
CCN(CC)CCCOC(=O)C(OC(C)C)(c1ccccc1)c1ccccc1	13
c1ccc2c(c1)Nc1ccccc1S2	3
COc1ccc(C(=O)C2CCCN(C3CSCCSC3)C2)cc1OC (stereo not given)	3
C=CCn1c(O)c(C(C)=Nc2cccc(C(=O)O)c2)c(=O)[nH]c1=O	35
CC12CC[C@H]3[C@@H](CCC4(O)C[C@H](O)CCC34/C=N/NC(=O)c3ccccc3Cl)C1(O)CCC2C1=CC(=O)OC1 (stereo not given in full)	14
O=C1C=C2C=C[C@H]3C[C@]2(O1)[C@@H]1CCCCN13	9
OC(c1ccccc1)(c1ccccc1)C1CN2CCC1CC2 (stereo not given)	5

Rewritten with each value named: entries from further up.
SMILES: Cc1cc(C(=O)CS(=O)(=O)c2ccc(F)cc2)cc(C)c1OC(=O)N(C)C
  Calb biofilm kill: 14

SMILES: COc1cccc(C(=O)C2CCCN(Cc3cnn(C(C)C)c3)C2)c1 (stereo not given)
  Calb biofilm kill: -3

SMILES: CCN1C(=O)C(=Cc2ccc(N3CCOCC3)o2)C(=O)N(CC)C1=S
  Calb biofilm kill: 4

SMILES: CCOC(=O)c1cc(CC)sc1/N=C/c1c(O)[nH]c(=S)[nH]c1=O
  Calb biofilm kill: 5

(continued)
SMILES	Calb biofilm kill
CCCCCc1cc(O)c2c3c(c(=O)oc2c1)CN(C)CC3	6
C/C(=N\Nc1cccc2ccccc12)c1c(O)n(Cc2ccccc2)c(=O)[nH]c1=O	-6
CN1CCC(C)(O)C2CCCCC21 (stereo not given)	9
O=C1Nc2ccccc2/C1=C/c1nc2ccccc2c(=O)n1-c1ccc(O)cc1	32
COc1ccc2c(CN3CC=C(c4ccccc4)CC3)cc(=O)oc2c1	14
CC(C)OP(=O)(OC(C)C)C(O)c1ccccc1F (stereo not given)	19
O=C(Nc1ccc(F)cc1)OC1CN2CCC1CC2 (stereo not given)	17
O=C(Nc1cccc(Br)c1)c1c(O)c2c(n(Cc3ccccc3)c1=O)CCCC2	13
CCN1CCN(C(=O)COc2ccc(S(=O)(=O)NC(C)C)cc2)CC1	18
O=c1[nH]c(=O)n(-c2cccc3ccccc23)c(O)c1/C=N/N1CCCCC1	21
CCOc1ccc(N2C(=O)NC(=O)/C(=C\c3cc(OC)c(OC)cc3[N+](=O)[O-])C2=O)cc1	15
O=C1NC(=O)C(CCc2ccncc2)(CCc2ccncc2)C(=O)N1C1CCCCC1	2

Next part, starting with the last 5 of the part before.
SMILES	Calb biofilm kill
O=C(Nc1cccc(Br)c1)c1c(O)c2c(n(Cc3ccccc3)c1=O)CCCC2	13
CCN1CCN(C(=O)COc2ccc(S(=O)(=O)NC(C)C)cc2)CC1	18
O=c1[nH]c(=O)n(-c2cccc3ccccc23)c(O)c1/C=N/N1CCCCC1	21
CCOc1ccc(N2C(=O)NC(=O)/C(=C\c3cc(OC)c(OC)cc3[N+](=O)[O-])C2=O)cc1	15
O=C1NC(=O)C(CCc2ccncc2)(CCc2ccncc2)C(=O)N1C1CCCCC1	2
CCN(CC)C(=O)N[C@H]1C[C@@H]2c3cccc4[nH]cc(c34)C[C@H]2N(C)C1	14
Cc1cc(C)n(-c2ccc(NN=C(C#N)C#N)cc2)n1	7
CNC(=S)N/N=C1\C2CN3CCN(C2)CC1(c1ccccc1)C3	1
COP(=O)(NC(=O)C(Cl)(Cl)Cl)OC	6
CC1CN=C(NC(C)c2ccccc2)S1 (stereo not given)	16
CC1CC(NC(=O)C2C3CCC(O3)C2C(=O)O)CC(C)(C)C1 (stereo not given)	15
Cc1nc2ccc(N3CCN(C)CC3)cc2nc1C	21
CCOC(=O)C(O)(c1ccc(NC(=S)NC(=O)c2ccc(Cl)cc2Cl)c(C)c1)C(F)(F)F (stereo not given)	5
CN1CN(c2cccc([N+](=O)[O-])c2)CN=C1N[N+](=O)[O-]	12
CC(C)(C)C(=O)OCC12CCC(O1)C1(C)C(=O)OCC21 (stereo not given)	15
Cn1c(O)c(C=NCCN2CCN(C(=O)Nc3ccccc3)CC2)c(=O)n(C)c1=O	9
Nc1ccncc1	15

Looked up above:
Calb biofilm kill, CCOC(=O)C(O)(c1ccc(NC(=S)NC(=O)c2ccc(Cl)cc2Cl)c(C)c1)C(F)(F)F (stereo not given) : 5
Calb biofilm kill, CC(C)(C)C(=O)OCC12CCC(O1)C1(C)C(=O)OCC21 (stereo not given) : 15
Calb biofilm kill, CC1CC(NC(=O)C2C3CCC(O3)C2C(=O)O)CC(C)(C)C1 (stereo not given) : 15

Next compounds:
SMILES	Calb biofilm kill
Cc1nccn1Cc1ccc(Cl)nc1	18
C/C(=N\N1CCCCCC1)c1c(O)n(C2CCCCC2)c(=O)[nH]c1=O	15
Cc1ccc(C(=O)c2cc(Br)ccc2N)cc1	8
CCn1c(O)c(/C=N/NC(=O)c2ccncc2)c(=O)[nH]c1=S	10
CC1(CCl)CN1S(=O)(=O)c1ccccc1 (stereo not given)	19
C=C1C(=O)O[C@@H]2C[C@@H](C)[C@@H]3C=CC(=O)[C@@]3(C)[C@@H](OC(=O)CC(=O)O[C@H]3[C@@H]4C(=C)C(=O)O[C@@H]4C[C@@H](C)[C@@H]4C=CC(=O)[C@]43C)[C@H]12	18
O=C(CN1CC=C(c2ccccc2)CC1)Nc1c(Cl)cccc1Cl	5
CCOc1ccc(-c2c(C)n(-c3ccc(OCC)cc3)c3[n+]2CCCCC3)cc1	13
CNC(=O)OCCc1n(C)cc[n+]1C	11
COc1cccc(C2(O)CCN(CC(=O)Nc3nc(C)cs3)CC2)c1	13
c1cc2c(cc1[C@H]1OC[C@H]3[C@@H]1CO[C@@H]3c1ccc3c(c1)OCO3)OCO2	16
CCN(CC)CCN/N=C(\C)c1c(O)[nH]c(=O)[nH]c1=O	16
CCOc1ccc(-c2cc(C)[n+](CCO)c(-c3ccc(OCC)cc3)c2)cc1	12
C=CCn1c(=O)c(C=Nc2c(OC)cccc2[N+](=O)[O-])c(O)n(CCCC)c1=O	16
COC(=O)C(O)(c1ccc(N(C)C(=O)c2ccc(Cl)c(Cl)c2)cc1)C(F)(F)F (stereo not given)	14
O=C(c1ccc(Cl)cc1)C1CCCN(Cc2ccon2)C1 (stereo not given)	-1
Cn1cnnc1Sc1cc(N2CCNCC2)ccc1[N+](=O)[O-]	23
CN1CCN(c2ccc(Cl)cc2N)CC1	27
Cn1ccc(NC(=O)CCl)n1	9
Cc1ccc(-c2nc3ccccc3c(=O)n2-c2ccncc2)cc1	4
CN1CCN(c2ncc(C=O)s2)CC1	11
Cc1nn(Cc2ccccc2)c(C)c1C(=O)O	14
CSc1nc(N2CCN(C)CC2)c2ccccc2n1	9
CC(C)c1oc(=O)cc2c1[C@@H](O)[C@H]1OC(=O)[C@@]3(C)C[C@@H](O)[C@@H](O)[C@@]2(C)C13 (stereo not given in full)	10
Cn1cccc1/C=C1/C(=O)NC(=S)N(Cc2ccc(F)cc2)C1=O	7
C/C=C1/CN2C3CC1C(CO)(C(=O)OC)C2Cc1c3n(C)c2ccccc12 (stereo not given)	14
CC1CCN(C(=O)c2ccc(N3CC4CC(C3)c3cccc(=O)n3C4)c([N+](=O)[O-])c2)CC1 (stereo not given)	13
C=CCn1c(O)c(C(C)=NCCN2CCN(C(=S)NC)CC2)c(=O)[nH]c1=O	30
O=C(N/N=C/c1c(O)n(-c2cccc3ccccc23)c(=O)[nH]c1=O)c1ccncc1	16

Some of the compounds tested. The share of hits here may be higher or lower than overall.
